Screening results deposited in PubChem by Broad Institute.
ALR H2O2 inh – inhibitors of human sulfhydryl oxidase ALR; actives 3.8% (n = 290,000); AID 485317; P55789; inhibition, % (no concentration beside the values); purified ALR, DTT oxidation, H2O2 HRP-luminol luminescence;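 active = mean and each replicate at 75% or more; inconclusive = only one of the two met; inactive = neither met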;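 note: stock transfer was 7.5 nL into about 7.5 µL; 0% = neutral wells and 100% = wells with inactivated enzyme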
Target sequence (P55789 whole entry, looked up): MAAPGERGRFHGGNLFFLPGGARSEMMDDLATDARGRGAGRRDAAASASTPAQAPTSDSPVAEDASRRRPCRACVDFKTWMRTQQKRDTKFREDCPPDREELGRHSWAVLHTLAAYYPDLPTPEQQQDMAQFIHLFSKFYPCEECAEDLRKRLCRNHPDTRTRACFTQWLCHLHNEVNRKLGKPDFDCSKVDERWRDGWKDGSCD
T cruzi repl – blocks replication of Trypanosoma cruzi | AID 1885 | inhibition, % (concentration not given with the values) | actives 1.4% (n = 300,000) | T. cruzi beta-gal in NIH3T3, luminescence, 90 h;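 active = mean inhibition across valid replicates above about 55%, limit read from the data; inconclusive = mean below that limit but half or more replicates reach it; inactive = mean below it, under half of replicates reach it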;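 note: signal also drops with host cell toxicity which is not excluded here; 0% = plate median of DMSO wells and 100% = zero luminescence signal; higher percent means less beta-gal luminescence so fewer parasites; stock transfer was 50 nL into about 50 µL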
Beta apoptosis – blocks beta cell apoptosis; AID 435005; actives 0.8% (n = 300,000); INS-1E cytokine-induced death, ATP luminescence, 48 h; percent of positive-control rescue, neutral wells zero; protection from apoptosis, % (no concentration beside the values);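 active = all replicates at 75% or more, or half of them and the mean; inconclusive = half reach 75% but not the mean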;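 note: 0% = cytokine-treated negative control wells and 100% = positive control rescue; higher means more ATP so stronger rescue from cytokine killing; wells of about 40 µL received 100 nL stock; the first replicate is given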
FGF22 binding – FGF22 (human) thermal shift binding | Q9HCT0 | recombinant FGF22 thermal shift, SYPRO orange fluorescence; percent of sucrose octasulfate shift, DMSO zero | calls only at 9.99 µM | actives 1.5% (n = 340,000);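 active = melting point raised past a set limit in the mean and every replicate; inconclusive = no clear call; three in four hits are not shown here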
Target sequence (Q9HCT0 whole entry, looked up): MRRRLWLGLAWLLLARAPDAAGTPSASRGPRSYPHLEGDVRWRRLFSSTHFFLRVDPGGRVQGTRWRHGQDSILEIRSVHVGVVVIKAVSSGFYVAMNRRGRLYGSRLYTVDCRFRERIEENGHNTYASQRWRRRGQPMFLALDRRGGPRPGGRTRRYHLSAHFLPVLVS
RanGTP-Imp inh – disruptors of Ran-importin-beta complex formation – biochemical, FRET, CFP-Ran, YFP-importin-beta, homogeneous, primary screen | cell-free CFP-Ran/YFP-importin-beta FRET ratio | inhibition, % (no concentration beside the values) | actives 1.1% (n = 300,000);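 active = most replicates above 15%; inconclusive = exactly half above 15%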;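 note: 0% = DMSO wells and 100% = Ran loaded with GDP instead of GTP; wells of about 40 µL received 100 nL stock; the first replicate is given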
AF4-AF9 inh – blocks AF4 peptide binding to human AF9 | actives 0.47% (n = 350,000) | AlphaScreen, biotin-AF4 peptide binding to FLAG-AF9 | inhibition, % at 10 µM | P42568;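 active = every replicate reaching a set inhibition limit, whatever the replicate mean, cut at about 25% in these data; inconclusive = mean inhibition reaches that limit but some replicates miss it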;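 note: 0% = plate neutral control median and 100% = total signal loss; the record names both 10 and 1 µM as test concentration; the first replicate is given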
Target sequence (P42568 whole entry, looked up): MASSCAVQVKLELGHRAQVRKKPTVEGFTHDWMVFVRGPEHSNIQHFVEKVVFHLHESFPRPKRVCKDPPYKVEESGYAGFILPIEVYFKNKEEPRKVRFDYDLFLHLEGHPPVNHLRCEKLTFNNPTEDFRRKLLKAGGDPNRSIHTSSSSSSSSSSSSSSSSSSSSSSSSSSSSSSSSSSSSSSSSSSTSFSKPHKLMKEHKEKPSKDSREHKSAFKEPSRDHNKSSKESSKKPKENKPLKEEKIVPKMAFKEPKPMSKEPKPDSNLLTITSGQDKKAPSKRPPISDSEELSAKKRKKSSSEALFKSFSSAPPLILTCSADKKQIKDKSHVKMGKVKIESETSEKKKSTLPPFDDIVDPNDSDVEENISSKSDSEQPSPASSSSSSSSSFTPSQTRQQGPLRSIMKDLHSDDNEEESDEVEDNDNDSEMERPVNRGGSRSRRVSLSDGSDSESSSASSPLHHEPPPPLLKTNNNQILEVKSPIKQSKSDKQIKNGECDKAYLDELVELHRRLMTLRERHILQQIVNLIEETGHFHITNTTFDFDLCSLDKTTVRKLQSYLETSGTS
Calb FLC – C. albicans growth modulation with fluconazole. C. albicans CaCi-2 (fluconazole-resistant clinical isolate) + fluconazole, Alamar Blue growth, 48 h. growth inhibition, % (concentration not given with the values). actives 0.57% (n = 300,000);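 active = most replicates above 75%; inconclusive = exactly half above 75%; inactive = most below 75%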;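 note: all wells also contain fluconazole at 8 µg/ml as a sub-toxic cotreatment; 0% = median of DMSO wells and 100% = median of geldanamycin control wells; wells of about 8 µL received 7.5 nL stock; the first replicate is given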
Ecoli rRNA inh – selective bacterial rRNA inhibition in E. coli; E. coli WT GFP vs humanized-ribosome RFP mutants, fluorescence, 24 h; active compounds read low; DMSO median 0, no signal -100; GFP signal change (wild-type ribosome), % (concentration not given with the values); actives 1.6% (n = 350,000); AID 720706;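 active = significant combined selectivity score with lowered wild-type GFP, culture density cut under 30%, mutant RFP and density less affected; inactive = any of these conditions unmet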; note: one replicate is shown; some compounds called inactive have numbers as strong as hits
Ecoli rRNA inh OD600 – further read-out of Ecoli rRNA inh, marked with its call; OD600 change, %; measured here: OD600 growth;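 optical density of the mix in the first replicate; 0 = DMSO median and -100 = no signal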
Ecoli rRNA inh RFP – further read-out of Ecoli rRNA inh, marked with its call; RFP signal change, %; measured here: RFP humanized mutant strains;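 first replicate; 0 = DMSO median and -100 = no signal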
* marks the source's active call; other numbers are inactive results; i = inactive; ? = inconclusive; . = no result given. This is a subset. The share of hits here may be higher or lower than overall.

Second line of a record – ALR H2O2 inh	T cruzi repl	Beta apoptosis	FGF22 binding	RanGTP-Imp inh	AF4-AF9 inh	Calb FLC	Ecoli rRNA inh	Ecoli rRNA inh OD600	Ecoli rRNA inh RFP
Cc1cc(C)cc(NC(=O)CCNS(=O)(=O)c2cc(Br)cnc2N)c1
→ -5	14	-3	i	-1.3	0.5	-3	-10	-24	0.9
O=C(N/N=C/c1ccccc1Cl)c1cccc(F)c1
→ -5	3	-1	.	2.7	.	-7	.	.	.
NNC(=O)C1=NOC(CNc2ncc(C(F)(F)F)cc2Cl)C1 (stereo not drawn)
→ -2	5	0	.	5.1	.	-44	.	.	.
COc1ccc(C(=O)OCC(=O)N2CCOCC2)cc1S(=O)(=O)N1CCOCC1
→ -4	.	0	i	.	-1.1	.	6	11	-1.9
O=C(O)CCCCCN=Cc1c(O)c2ccccc2oc1=O
→ -2	-4	-5	.	5.1	1.4	0	1	7	-2.8
COc1ccc(-c2cc(C#N)nc(N3CCNCC3)n2)cc1
→ .	57*	-5	.	-0.4	.	-27	.	.	.
CCOc1ccc(NC(=O)COC(=O)CSCC(=O)Nc2ccc(C)cc2C)cc1
→ 2	.	0	i	.	1.0	.	1	-3	-1.4
C=CC(COCc1ccccc1)N(Cc1ccccc1)S(=O)(=O)c1ccccc1Br (stereo not drawn)
→ -1	11	.	.	-3.6	.	-1	.	.	.
COc1cccc(/C=N/NC(=O)CC2C(=O)NN=C2C)c1OC (stereo not drawn)
→ 16	-3	1	.	4.3	.	1	.	.	.
Cc1ccc(C(=O)Nc2sc3c(c2C(=O)O)CCCC3)o1
→ 68	-7	10	i	-2.8	-1.3	?	-25*	-16*	-5.6*
Cc1cc(C)[n+](Cc2ccccc2)cc1C(N)=O
→ -6	9	-4	i	1.9	0.5	8	14	12	2.6
Cc1ccc(NC(=O)c2cc(C)nn2-c2ccccc2)cc1
→ -2	3	5	i	-2.5	1.3	1	3	-5	-3.4
Cn1c(-c2ccc(F)cc2)cnc1SCC(=O)Nc1ccccc1
→ 1	3	-4	i	-0.9	-2.9	19	-5	19	-9.1
COc1ccc(C(CC(=O)O)NC(=O)OC(C)(C)C)cc1 (stereo not drawn)
→ -17	-7	-3	.	-4.2	.	-8	.	.	.
COC(=O)c1ccc(CSc2nnc(NC(=O)C3CC(=O)N(Cc4ccc(C)cc4)C3)s2)cc1 (stereo not drawn)
→ -1	-7	2	.	1.0	.	1	.	.	.

Other records.
Second line of a record – ALR H2O2 inh	T cruzi repl	Beta apoptosis	FGF22 binding	RanGTP-Imp inh	AF4-AF9 inh	Calb FLC	Ecoli rRNA inh	Ecoli rRNA inh OD600	Ecoli rRNA inh RFP
Cc1[nH]n(-c2ccccc2)c(=O)c1N=Nc1ccccc1O
→ .	47	.	i	-9.4	3.9	-3	-25	-23	-3.5
Cc1cccc(NS(=O)(=O)c2ccc(-c3cnc(C4CC4)o3)cc2)c1
→ -1	-27	27	i	6.1	-18	-2	-8	-53	17
Cc1onc(-c2ccccc2Cl)c1C(=O)Nc1ccccc1C(=O)NC(C)C
→ -15	-16	-2	.	-1.0	.	5	.	.	.
Cc1cc(C)n2nc(SCCCC(=O)c3ccccc3)nc2n1
→ -3	7	-4	i	-1.8	-0.9	5	12	10	-2.8
COC(=O)c1ccc(N2C(=O)CC(N3CCN(c4ccccc4)CC3)C2=O)cc1 (stereo not drawn)
→ 3	1	-4	.	0.4	.	?	.	.	.
COc1cccc(/C=C/c2onc(C)c2S(=O)(=O)N2CCC(C(=O)NC3CCCCCC3)CC2)c1
→ -8	-13	12	i	?	3.1	-2	-1	10	-1.4
Cc1ccc(S(=O)(=O)Cc2ccc([N+](=O)[O-])cc2)cc1
→ 7	-6	-3	i	-2.7	-2.1	-11	10	22	-2.2
COc1cccc(CN2CCN(C(=O)CCc3nnc(C4CCCCC4)o3)CC2=O)c1
→ -1	4	-8	i	0.4	-0.9	-3	7	5	3.9
CCOc1cc(C2C3=C(CCCC3=O)Nc3nc(C(=O)OC)nn32)ccc1OC (stereo not drawn)
→ -21	-5	-7	.	3.3	.	3	.	.	.
CN(C)c1cc(-c2ccc(F)cc2)oc(=O)c1Cl
→ -2	-2	3	i	2.0	2.8	9	-11	4	0.6
Cc1nn(C2CCS(=O)(=O)C2)c(Cl)c1/C=C/C(=O)OCC(=O)c1c[nH]c2ccccc12 (stereo not drawn)
→ -9	-34	8	i	4.1	2.2	-2	-28	-38	11
Cc1ccc(OCC(O)CN2CCN(Cc3ccc4c(c3)OCO4)CC2)cc1C (stereo not drawn)
→ -5	6	-3	i	-0.7	2.5	-17	.	.	.
Brc1cccc(OCCCCn2cncn2)c1
→ -3	4	.	i	-2.2	-2.0	4	1	4	-3.9
C[C@H](CO)N1C[C@H](C)[C@@H](CN(C)Cc2ccc3c(c2)OCO3)Oc2c(NC(=O)Cc3ccccc3)cccc2C1=O
→ -3	.	4	i	.	6.0	.	-37	-51	-9.2
COc1ccccc1-c1cc(C(=O)NC2CCN(C)CC2)c2ccc(Cl)c(C)c2n1
→ -7	59*	112*	i	-0.7	2.5	3	0	2	3.7

Next results.
Second line of a record – ALR H2O2 inh	T cruzi repl	Beta apoptosis	FGF22 binding	RanGTP-Imp inh	AF4-AF9 inh	Calb FLC	Ecoli rRNA inh	Ecoli rRNA inh OD600	Ecoli rRNA inh RFP
COc1ccc(NC2c3ccccc3C(=O)N2Cc2ccccc2Cl)cc1OC (stereo not drawn)
→ 53	4	1	i	-3.8	15	10	-9	-5	4.4
O=C(Nc1ccccc1NC(=O)c1ccco1)c1ccccc1
→ -1	-3	0	i	?	1.4	0	4	6	-1.2
CN(Cc1nccs1)C(=O)C1CCC(=O)N(CCc2cccc(F)c2)C1 (stereo not drawn)
→ -8	0	-3	i	4.7	1.5	3	5	9	-0.5
O=C(O)/C=C/c1cn(-c2ccccc2)nc1-c1cccs1
→ .	6	0	i	3.3	-25	25	-8	-13	0.6
O=C1/C(=C/c2ccc3c(c2)OCO3)Oc2cc(OCC(=O)N3CCC[C@H]3C(=O)O)ccc21
→ 6	1	-2	.	-33	.	8	.	.	.
Cc1ccc(S(=O)(=O)Nc2ccc3c(c2)OCCO3)cc1
→ .	-6	3	i	1.5	-9.5	-25	-14	-13	2.9
O=C(CCSCc1ccccc1F)NCc1cccs1
→ -8	-19	0	i	0.1	-1.3	-7	-15	-17	-2.9
CCCCN(C)C1=Nc2cccc3cccc1c23
→ -8	9	7	.	2.5	.	-3	.	.	.
O=C1CSC(=S)N1c1cccc(Cl)c1
→ 41	-18	-12	i	0.0	0.3	-8	-5	-11	16
Cc1c(Cl)c([N+](=O)[O-])nn1CCCC(=O)N(Cc1ccccc1)Cc1ccccc1
→ .	64*	-3	.	5.7	1.8	1	-4	-4	1.8
COc1nc(N(CC(N)=O)S(=O)(=O)c2ccccc2)nc(C)c1Cl
→ 0	-7	-4	.	3.3	.	-3	.	.	.
O=C(NC12CC3CC(CC(C3)C1)C2)c1cc([N+](=O)[O-])ccc1N1CCOCC1
→ 16	20	5	i	2.9	4.9	-16	-13	-15	-7.1
CCN1CCN(C(=O)CCc2nnc(CCc3ccccc3OC)o2)[C@@H](C)C1=O
→ 3	-31	-2	i	1.1	-2.7	-13	10	8	-0.4
Cc1ccc(C(=O)N2c3ccccc3NC(=O)C2C)cc1 (stereo not drawn)
→ -2	-5	-4	i	1.6	-0.7	16	6	-13	1.0
CC(=O)CN1C(=O)NC2(CCCc3ccccc32)C1=O (stereo not drawn)
→ -7	-6	1	i	-3.1	2.0	9	10	13	-1.1

Continuation:
Second line of a record – ALR H2O2 inh	T cruzi repl	Beta apoptosis	FGF22 binding	RanGTP-Imp inh	AF4-AF9 inh	Calb FLC	Ecoli rRNA inh	Ecoli rRNA inh OD600	Ecoli rRNA inh RFP
Cc1nnc(Sc2cc(C(=O)NCc3ccco3)c3ccccc3n2)s1
→ 0	1	-3	.	2.4	.	0	.	.	.
O=S(=O)(NCC1CCCO1)c1ccccc1 (stereo not drawn)
→ -15	0	-2	i	0.2	2.3	12	1	1	-0.9
CCOc1nc(SC(C(C)=O)C(=O)Nc2ccccc2)nc(N(C)C)n1 (stereo not drawn)
→ 19	-2	-7	.	1.3	.	7	.	.	.
O=C1OC(c2ccccc2)=N/C1=C\C=C\c1ccco1
→ .	-1	-4	i	0.6	0.1	1	21	15	11
COc1cc(-c2cc(C(=O)N(C)Cc3ccccc3)c3ccccc3n2)cc(OC)c1OC
→ -2	49	12	i	-0.4	1.0	0	-11	-9	10
CCN1C(=O)[C@@H]2[C@H](C1=O)[C@@H]1C(=O)Nc3ccccc3C(=O)N1[C@@H]2c1ccc(Br)cc1
→ -5	6	2	i	-2.4	-2.7	-6	0	12	-0.3
COC(=O)COc1ccc(S(=O)(=O)N2CCc3ccccc3C2)cc1
→ -3	-8	-3	.	?	.	-18	.	.	.
COc1ccccc1C(CC(=O)Nc1ccc(C)c(C)c1)c1ccc(OC(C)C)cc1 (stereo not drawn)
→ -2	44	20	i	-2.8	-1.7	-5	0	0	-3.1
COc1ccccc1N1CCN(C2CCCN(C(=O)c3ccccn3)C2)CC1 (stereo not drawn)
→ 18	-14	3	i	-1.2	-3.0	1	-6	-6	-2.1
Cc1nc2ncnn2c(Nc2ccc3c(c2)OCCO3)c1C
→ -2	-4	-4	.	-3.6	.	7	.	.	.
Cn1c(=O)c2c(n(C)c1=O)=NC1(CCCCC1)ON=2
→ -2	-13	.	.	0.4	.	7	.	.	.
COc1ccc(C(=O)/C(C#N)=N/Nc2ccc([N+](=O)[O-])cc2)cc1
→ -8	-11	107*	i	-8.4	0.6	-8	6	3	-6.5
Cc1cc(C)n(CC(=O)Nc2ccc3c(c2)OCO3)c(=O)c1C#N
→ .	-2	-1	i	-2.3	5.4	2	-3	1	-2.1
O=C(N/C(=C/c1cn(-c2ccccc2)nc1-c1ccccc1)C(=O)N1CCOCC1)c1ccc(Cl)cc1Cl
→ -5	15	8	.	-1.6	.	0	.	.	.
C=CCn1c(SCc2cc(=O)n3ccsc3n2)nc2sc(C)c(C)c2c1=O
→ -3	5	.	.	-2.3	.	8	.	.	.
CN(C)C(=O)c1ccc(NC(=O)c2ccccc2SCC(=O)N2CCCC2)cc1
→ -1	.	-4	i	.	1.0	.	.	.	.

One compound at a time (already shown). Screens in order: ALR H2O2 inh | T cruzi repl | Beta apoptosis | FGF22 binding | RanGTP-Imp inh | AF4-AF9 inh | Calb FLC | Ecoli rRNA inh | Ecoli rRNA inh OD600 | Ecoli rRNA inh RFP
Record of `Brc1cccc(OCCCCn2cncn2)c1` : -3 | 4 | . | i | -2.2 | -2.0 | 4 | 1 | 4 | -3.9
Record of `Cc1ccc(S(=O)(=O)Cc2ccc([N+](=O)[O-])cc2)cc1` : 7 | -6 | -3 | i | -2.7 | -2.1 | -11 | 10 | 22 | -2.2
Record of `Cc1cc(C)n2nc(SCCCC(=O)c3ccccc3)nc2n1` : -3 | 7 | -4 | i | -1.8 | -0.9 | 5 | 12 | 10 | -2.8
Record of `CCCCN(C)C1=Nc2cccc3cccc1c23` : -8 | 9 | 7 | . | 2.5 | . | -3 | . | . | .
